# Compound activity deposited in PubChem by Southern Research Specialized Biocontainment Screening Center.
# Mtb betalactam: beta-lactam sensitization of Mtb H37Rv. M. tuberculosis H37Rv growth with meropenem, percent inhibition; hits of this screen are not shown here. inhibition, % at 25 µM. 330,000 tested, 0.27% active. AID 434955;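 active = about 74% or more and at least 40 points above the plate without the antibiotic, then above 30% in a dose series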;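 also: growth measured after seven days incubation then overnight dye step; 0% = bacteria only wells and 100% = bacteria with antibiotic; twin plates without the antibiotic show which effects depend on it; some results filed as inactive read as strong as hits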
# Numbers without * were called inactive; & = joins results of further samples. Only part of the results is shown; rates above refer to the full screens.
# Start of the data: the first five entries (preview)
SMILES,Mtb betalactam
CCCn1c(N)c(C(=O)CN(C)CC(=O)Nc2cccc(F)c2)c(=O)[nH]c1=O,-2.9
Cc1csc2ncc(C(=O)NCCC(c3ccccc3)c3ccccc3)c(=O)n12,-8.6
C#CCC(NC(=O)c1ccc(C#N)cc1)C(=O)NCCC (stereo not drawn),-0.2
Cc1cc(NC(=O)c2cc(-c3ccncc3)nc3ccccc23)ccc1Br,33.4
O=C(c1cc(S(=O)(=O)N2CCOCC2)ccc1Cl)N1CCCCC1CO (stereo not drawn),1.0

# Main list, previewed entries included:
SMILES,Mtb betalactam
CCCn1c(N)c(C(=O)CN(C)CC(=O)Nc2cccc(F)c2)c(=O)[nH]c1=O,-2.9
Cc1csc2ncc(C(=O)NCCC(c3ccccc3)c3ccccc3)c(=O)n12,-8.6
C#CCC(NC(=O)c1ccc(C#N)cc1)C(=O)NCCC (stereo not drawn),-0.2
Cc1cc(NC(=O)c2cc(-c3ccncc3)nc3ccccc23)ccc1Br,33.4
O=C(c1cc(S(=O)(=O)N2CCOCC2)ccc1Cl)N1CCCCC1CO (stereo not drawn),1.0
N#Cc1ccc(C(=O)NC(=S)N2CCOCC2)cc1,2.5
Cc1nnc(SCC(=O)Nc2sc3c(c2C(N)=O)CCC(C)C3)[nH]c1=O (stereo not drawn),-1.1
CC1(C)CC(NC(=O)COc2ccc(Cl)cc2Cl)CC(C)(C)N1,-5.5
O=C(COC(=O)c1cc(S(=O)(=O)N2CCOCC2)c(Cl)cc1Cl)NC1CC1,-11.4
COc1cc(C(=O)OCCCc2cc3ccccc3c(=O)o2)cc(OC)c1OC,-4.4
O=C(Nc1ccc(S(=O)(=O)N2CCCC2)cc1)c1cncc(Br)c1,-5.0
Cc1cc(C)cc(NC(=O)CN2CCC(NC(=O)c3ccccc3F)CC2)c1,-7.5
CC(Sc1ncccn1)C(=O)NNC(=O)c1cccc(Cl)c1 (stereo not drawn),-4.1
Oc1ccc2c3c1OC1[C@H](O)CC[C@@]4(O)[C@@H](C2)N(CC2CC2)CC[C@]314 (stereo partly drawn),-5.1&-1.5
C[C@@H]1CN([C@@H](C)CO)C(=O)c2cccc(NS(C)(=O)=O)c2O[C@H]1CN(C)C(=O)Nc1ccc(F)cc1,3.6
CCCCCCC[C@@H](C/C=C/CCC(=O)N(C)C/C(=C/Cl)C/C(=C\C(=O)N1C[C@H](O)CC1=O)OC)OC,-6.9
Cc1cccc(NC(=O)CN2CCN(C(=O)COc3cccc(Br)c3)CC2)c1C,2.2
CN(C(=O)COc1cccc(C#N)c1)C1CCS(=O)(=O)C1 (stereo not drawn),0.2
CCCCNC(C)Cc1ccccc1 (stereo not drawn),-8.0
Cn1c(N)c(C(=O)CSc2nnc(C3CC3)n2-c2ccccc2)c(=O)[nH]c1=O,-8.6
O=C(/C=C/c1ccc([N+](=O)[O-])cc1)Nc1cccc(C(=O)Nc2ccccc2C(=O)O)c1,-1.7
COc1ccccc1-c1oc2ccccc2c1C#CCO,5.8
Cn1cnc(C(=O)NC2CCN(C(=O)OC(C)(C)C)CC2)c1C(=O)NC1CCN(C(=O)OC(C)(C)C)CC1,-10.0
Cc1ccc(-c2noc(COC(=O)c3ccco3)n2)cc1,13.0
CN(C(=O)CSc1nnc(-c2cccnc2)o1)C1CCCCC1,10.3
CN1C(CC(O)c2ccccc2)CCCC1CC(O)c1ccccc1 (stereo not drawn),-4.9
COC(=O)CNC(=O)c1cc(-c2ccncc2)nc2ccccc12,-9.5
CCC(CO)Oc1cc(NCc2ccncc2)c2ncn(C(C)C)c2c1 (stereo not drawn),-9.2
CCc1ccc(NC(=O)C(=O)c2ccccc2NC(C)=O)cc1,95.0
CN1CCCC(CC2c3ccccc3Sc3ccccc32)C1 (stereo not drawn),16.9
C[C@@H](NC(=O)c1nc[nH]c1C(=O)OCc1ccccc1)c1ccccc1,19.1
COc1ccc(OC)c(N2C(=O)CC(NNC(=O)c3ccc4c(c3)OCO4)C2=O)c1 (stereo not drawn),-0.6
Cn1cc(S(=O)(=O)N2CCCC2)cc1C(=O)O,-8.5
COc1ccc2oc(C(=O)NCc3ccccc3CN3CCCC3)c(C)c2c1,0.3
C#CCOCCOCCOCCNc1nc(N2CCN(C(=O)C([C@@H](C)O)n3cc([C@@H](N)CCCCN)nn3)CC2)nc(N2CCN(C(=O)C([C@@H](C)O)n3cc([C@@H](N)CCCCN)nn3)CC2)n1 (stereo partly drawn),4.8
CC1(C)CC2CC(C)(CN2S(=O)(=O)c2cccc(C(=O)O)c2)C1 (stereo not drawn),-0.8
C[C@H](CO)N1C[C@H](C)[C@@H](CN(C)C(=O)Nc2ccc(C(F)(F)F)cc2)Oc2c(NC(=O)c3ccncc3)cccc2C1=O,-1.2
O=C(Nc1cccc([N+](=O)[O-])c1)c1ccc2c(c1)C(=O)N(c1ccccn1)C2=O,-4.6
CCOC(=O)[C@H]1[C@H]2COc3cc(OC)ccc3[C@@H]2N2C(=O)c3ccc(C)cc3NC(=O)[C@@]12C,38.5
Cc1ccc(S(=O)(=O)N(C)c2ccc(C(=O)NCC(c3ccco3)N(C)C)cc2)cc1 (stereo not drawn),-16.9
N#C/C(=C\c1ccc(O)c(O)c1)C(=O)c1ccc(O)c(O)c1,9.1
O=S(=O)(c1ccc(Cl)cc1)N1CCN(c2ncnc3sccc23)CC1,-6.5
Cc1ccc(SCC(=O)NC2CCS(=O)(=O)C2)cc1C (stereo not drawn),0.8
Cn1nc(C(=O)Nc2cccc(S(=O)(=O)N3CCOCC3)c2)c2ccccc2c1=O,4.1
O=C(COC(=O)COc1cccc(C(F)(F)F)c1)Nc1ccc(N2CCOCC2)cc1,-5.5
CCOC(=O)c1ccc(S(=O)(=O)Nc2cc(S(=O)(=O)N3CCOCC3)ccc2O)cc1,60.0
COc1ccc(NC(=O)CCC(=O)Nc2cc(OC)c(NC(=O)c3cccs3)cc2OC)cc1,-0.1
CCCOc1ccc(NC(=O)CC2C(=O)Nc3ccccc3N2CC(=O)N2CCCC2)cc1 (stereo not drawn),-10.2
O=C(CN1C(=O)C2CCCCC2C1=O)Nc1cc([N+](=O)[O-])ccc1F (stereo not drawn),0.2
CC[C@H](C)[C@@H](C(=O)NCCCCCCCCCCC(=O)N1CCNCC1)n1cc(CCCCCN)nn1,-2.8
NC(=O)C1CCN(C(=O)CSc2nc(O)cc(=O)[nH]2)CC1,-9.5
CCOC(=O)[C@@H]1[C@H]2COc3ccccc3[C@@H]2N2C(=O)N(c3ccc(C(F)(F)F)cc3)C(=O)[C@@]12C,-2.6
CN(CC(=O)Nc1cccc(F)c1)C(=O)CCN1C(=O)C2CC=CCC2C1=O (stereo not drawn),-7.1
O=C(C[C@@H]1C/C=C\C[C@H](NC(=O)OCC2c3ccccc3-c3ccccc32)C(=O)OC[C@H]2CCCN2C1=O)N[C@H](CO)Cc1ccccc1,81.9
CCCCCCC1(C)NC(=O)N(C(C)C(=O)Nc2ccc(N3CCOCC3)cc2)C1=O (stereo not drawn),-6.3
Cc1nnc(SCC(=O)NC2CCCc3c2cnn3-c2ccc(F)cc2F)o1 (stereo not drawn),-6.5
Cc1ccc(NS(=O)(=O)c2cc(C(=O)N(C)C3CCN(C)CC3)ccc2Cl)cc1Cl,2.1
CC(=O)N1CCN(C(=O)c2ccc(-c3ccccc3Cl)o2)CC1,-1.9
COCCN(CCOC)C(=O)CSc1ccc(S(=O)(=O)N2CCN(C)CC2)cn1,-2.8
C=CCNC(=O)c1cccc2c1C(=O)c1ccc(N3CCCC3)cc1S2(=O)=O,3.6

# More compounds:
SMILES,Mtb betalactam
C[C@@H]1CN([C@H](C)CO)C(=O)Cc2cc(NC(=O)Nc3ccccc3)ccc2O[C@@H]1CN(C)C(=O)Nc1ccc2c(c1)OCO2,1.3
O=C(CC1OC(=O)c2ccccc21)Nc1cc(Cl)ccc1N1CCOCC1 (stereo not drawn),-7.4
COc1cc(/C=C/C(=O)N(C)CC(=O)Nc2ccccc2SC)cc(OC)c1OC,0.6
O=C(OCC(=O)c1ccc[nH]1)c1ccc(Br)cc1,1.7
CN(C)CCNC(C(=O)Nc1cccc(S(=O)(=O)N2CCOCC2)c1)c1ccccc1 (stereo not drawn),-5.0
COc1ccc([C@@H]2[C@@H]3C(=O)N(C(C)(C)C)C(=O)[C@@H]3[C@]3(Cc4ccc(Cl)cc4)C(=O)N(c4cccc(F)c4)C(=O)N23)cc1,0.3
CCOC(=O)[C@H]1[C@H]2COc3ccc(C)cc3[C@@H]2N2C(=O)c3ccccc3NC(=O)[C@@]12C,2.1
COc1ccc(CCN2CC(C(=O)NCc3nc4ccccc4n3C)CCC2=O)cc1 (stereo not drawn),-8.7
COc1ccc(C(=O)COC(=O)c2c(C)noc2C)cc1Cl,-4.0
CC(C)CC(=O)Nc1ccc(C(=O)COC(=O)Cc2n[nH]c(=O)c3ccccc23)cc1,-3.9
O=C(COC(=O)C1CC1)Nc1ccc(Cl)cc1Cl,23.9
COc1ccc(OC)c(NC(=O)COC(=O)CCc2ccc(S(=O)(=O)N3CCOCC3)cc2)c1,-1.3
CCc1cc(=O)oc2cc(OCC(=O)N3CC[C@@]4(O)CCCC[C@H]4C3)ccc12,-7.5
CC(=O)Nc1sc(C)c(C)c1C(=O)OCC(=O)Nc1ccccc1,6.3
O=C(COC(=O)c1nc(Cl)ccc1Cl)NCc1ccc(Cl)cc1,-3.1
Cc1cc(C(=O)Nc2cc(S(C)(=O)=O)ccc2Cl)c(C)o1,-5.1
CCOC(=O)C1CCCN(C(=O)c2ccc(S(=O)(=O)Nc3ccccc3OC)cc2)C1 (stereo not drawn),3.1
CCOc1ccc(OCC(=O)OC(C)C(=O)NC2CCCCC2C)cc1 (stereo not drawn),13.2
CC(=O)Nc1ccc(SCC(=O)Nc2ccc3c(c2)OCCO3)cc1,39.5
Cc1c(C(=O)NNC(=O)c2csc(N3CCOCC3)n2)cccc1[N+](=O)[O-],-0.6
CC1Cc2ccccc2N1S(=O)(=O)c1cccc(C(=O)NCc2ccncc2)c1 (stereo not drawn),-1.1
COc1ccc(-c2sc3ccccc3c2C#Cc2cncn2C)cc1,99.0
CC(C)Cn1c(SCC(=O)N2CCc3ccccc3C2)nc(O)cc1=O,-0.9
CC(C)(O)c1cc2ccc(C#CCCN3C(=O)c4ccccc4C3=O)cc2c(=O)o1,-5.9
CCN(CC(=O)Nc1c(F)cccc1F)C(=O)CN1C(=O)C2CCCCC2C1=O (stereo not drawn),-1.7
CC(C)[C@H](NS(=O)(=O)c1ccccc1)C(=O)Nc1nccs1,4.3
Cc1c(NC(=O)COc2cccc(Br)c2)c(=O)n(-c2ccccc2)n1C,-2.2
CC(C)C(=O)Nc1ccc(C(=O)CN2C(=O)NC3(CCOc4ccccc43)C2=O)cc1 (stereo not drawn),0.5
CC(C)CCN1CCN=C1N(C)C,-0.2
COc1cc(/C=C/C(=O)O)ccc1OS(=O)(=O)c1c(C)c(C)cc(C)c1C,9.4
COc1ccc(S(=O)(=O)NCCOc2ccc(Cl)cc2)cc1,-4.6
COc1ccc(NC(=O)N(C)C[C@H]2Oc3ccc(NC(=O)NC4CCCCC4)cc3C(=O)N([C@H](C)CO)C[C@@H]2C)cc1,9.9
Cc1cc(C)c(C(=O)CSc2nc(C)cc(=O)[nH]2)c(C)c1,-1.1
CCC(C)N(C(=O)c1csnn1)C(C(=O)NCc1ccc(F)cc1)c1ccccc1F (stereo not drawn),0.2
Cc1ccc(CONC(=O)c2cccc([N+](=O)[O-])c2)cc1,0.7
CCCN(CC(=O)Nc1ccccc1OC)C(=O)c1nc2nc(C)ccn2n1,-8.4
COc1ccccc1N(C)S(=O)(=O)c1ccc(C)c(C(=O)NCc2ccccn2)c1,0.6
O=C(CN1C(=O)NC2(CCCCCC2)C1=O)Nc1ccccc1[N+](=O)[O-],-8.0
CCN1CCN(C(=S)NC(=O)c2cc(OC)c(OC)c(OC)c2)CC1,-0.4
C[C@H]1CN([C@@H](C)CO)C(=O)c2cccc(NC(=O)c3cnccn3)c2O[C@@H]1CN(C)C(=O)Nc1ccc2c(c1)OCO2,1.9
Cc1nc(SCC(=O)NC2CCS(=O)(=O)C2)c2c(C)c(C)sc2n1 (stereo not drawn),-0.5
C[C@H](NC(=O)c1nc[nH]c1C(=O)N1CCc2ccccc2C1)c1ccccc1,5.4
O=C(CCCOC(=O)c1ccc(O)cc1)c1ccccc1,-8.7
CCC(C)(C)NC(=O)C(c1ccc(C)cc1)N(CC1CCCO1)C(=O)CCC(=O)Nc1ccccn1 (stereo not drawn),-4.0
Cc1ccn2cc(C(=O)N3CCN(c4cnn(-c5ccccc5)c(=O)c4Cl)CC3)nc2c1,-0.6

# Structural class, the entries above containing a thiophene ring, fused or not (6)
SMILES,Mtb betalactam
Cc1nnc(SCC(=O)Nc2sc3c(c2C(N)=O)CCC(C)C3)[nH]c1=O (stereo not drawn),-1.1
O=S(=O)(c1ccc(Cl)cc1)N1CCN(c2ncnc3sccc23)CC1,-6.5
COc1ccc(NC(=O)CCC(=O)Nc2cc(OC)c(NC(=O)c3cccs3)cc2OC)cc1,-0.1
CC(=O)Nc1sc(C)c(C)c1C(=O)OCC(=O)Nc1ccccc1,6.3
COc1ccc(-c2sc3ccccc3c2C#Cc2cncn2C)cc1,99.0
Cc1nc(SCC(=O)NC2CCS(=O)(=O)C2)c2c(C)c(C)sc2n1 (stereo not drawn),-0.5

# (continued)
SMILES,Mtb betalactam
Cc1ccc(NC(=O)COC(=O)c2ccc(Br)o2)cc1S(=O)(=O)N1CCCCC1,-5.2
O=S(=O)(Nc1ccc2nc(N3CCOCC3)sc2c1)c1ccc(Cl)cc1,15.4
Cc1ccc(C)c(S(=O)(=O)Nc2ccc(-n3cnnn3)cc2)c1,-1.4
O=C(Nc1nc(-c2ccccn2)cs1)c1cccc(S(=O)(=O)N2CCOCC2)c1,83.4
Cc1ccc(N(C)S(=O)(=O)c2cccc(C(=O)Nc3ccc(N4CCOCC4)cc3)c2)cc1,15.1
